# Screening results (PubChem)
# WNV NS2B-NS3 inh – inhibitors of West Nile virus NS2B-NS3 protease; P06935; WNV NS2B-NS3 protease, fluorogenic substrate Ex360/Em465; hits give low values; z-score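 (tested at a level between 10 and 100 µM)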; 0.18% of 65,000 active;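 active = z-score at -3 or under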;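 also: score is relative to mean and spread of the compound wells of a plate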
# Target sequence (P06935 1371-1501 limits assumed): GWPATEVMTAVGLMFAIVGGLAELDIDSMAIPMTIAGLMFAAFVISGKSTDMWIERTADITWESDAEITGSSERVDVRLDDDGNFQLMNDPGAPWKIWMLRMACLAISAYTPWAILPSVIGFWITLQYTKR
# Target sequence (P06935 1502-1679 limits assumed): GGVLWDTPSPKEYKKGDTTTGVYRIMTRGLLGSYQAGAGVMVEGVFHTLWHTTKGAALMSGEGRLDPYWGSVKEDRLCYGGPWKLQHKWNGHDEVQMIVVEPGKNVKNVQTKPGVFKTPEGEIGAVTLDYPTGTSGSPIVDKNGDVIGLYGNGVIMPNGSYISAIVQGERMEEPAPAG
# Hsc70 – Hsc70 inhibitors, probe displacement, primary screen, biochemical, fluorescence polarization (AID 568). 83,000 tested, under 10 active. displacement, % at 20 µM; hits with a dose series show IC50 in µM. Hsc70 fluorescence polarization, probe displacement; higher % means a stronger effect; strong numbers were not always called active;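 active = displacement above 50% without optical interference and an IC50 on retest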;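 also: ATPase domain with a fluorescein-tagged ATP probe; 0% = vehicle and 100% = excess ADP; read after one hour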
# MT1-MMP reporter – MT1-MMP gene expression reporter suppression – cell-based, luciferase reporter, luminescence (AID 618) | MT1-MMP promoter luciferase reporter cells, luminescence | calls from a first round at 10 µM; hits with a dose series show EC50 in µM | 0.62% of 87,000 active;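 active = over half of the reporter light lost at 10 µM or EC50 under 50 µM; inactive = the rest and hits that failed the dose series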;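 also: actives suppress MT1-MMP promoter-driven transcription so potencies describe inhibitors; HT1080 fibrosarcoma cells; overnight exposure; toxic or luciferase-blocking compounds were not removed from the actives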
# * = called active by the depositor; i = inactive; · = no result given. This is a subset; rates above refer to the full screens.
SMILES,WNV NS2B-NS3 inh,Hsc70,MT1-MMP reporter
COc1ccc(Cl)cc1C(=O)N(Cc1nc(-c2cccc(C)c2)no1)C(C)C,-0.49,7.5%,i
O=C(Nc1cc(C(F)(F)F)ccc1Cl)C1CCN(c2nnc(-n3cccc3)s2)CC1,0.47,-4.7%,i
O=C(c1cc2sccc2n1Cc1ccc(F)cc1)N1CCc2ccccc21,·,2.3%,i
CCCC(=O)NC(C)c1nc2ccccc2n1C (stereo unspecified),0.15,-1.3%,i
CN(C)c1ccc(CN(C(=O)C2COc3ccccc3O2)C2CCS(=O)(=O)C2)cc1 (stereo unspecified),-0.91,-2.6%,i
CCNC(=O)/N=C1/NC(=O)C(C(C)C)O1 (stereo unspecified),1.6,-2.6%,i
OCCN(Cc1ccccc1)Cc1cccc(F)c1,-0.12,-3.0%,i
O=C(O)c1cccc(NC(=O)C2CC(=O)N(Cc3ccccc3)C2)c1 (stereo unspecified),-0.02,-3.8%,i
O=C(CCCSc1ccccc1)Nc1nc(-c2ccccn2)cs1,·,-2.3%,i
COc1ccccc1CNC(=O)C1CCCN(S(=O)(=O)c2cnc[nH]2)C1 (stereo unspecified),-0.05,-1.3%,i
CC1(C)CC(NS(=O)(=O)c2ccccc2)CC(C)(C)N1,1.08,46.7%,i
CC1=CC(C)C(C(=O)O)C(C(=O)O)C1 (stereo unspecified),-0.79,3.2%,i
COC(=O)C1C2C=CC3(CN(C4CCCC4)C(=O)C13)O2 (stereo unspecified),0.51,1.6%,i
CCOC(=O)C1=C(C)N2C(=C(C#N)[C@@H]1c1ccc(C(=O)OC)cc1)SC[C@@]2(O)C(C)(C)C,-0.02,1.2%,i
Cn1c(C(=O)NCc2ccc3c(c2)OCO3)cc2sccc21,-0.75,-3.2%,i
CC(C)CCN(C)C1CCN(S(=O)(=O)c2ccc(F)cc2)CC1,0.9,-0.6%,i
Cc1cc(C)n2ncnc2n1,·,4.4%,i
O=C(NCCCN1CCCC1=O)c1ccc(CNS(=O)(=O)c2ccc(F)cc2)cc1,-0.68,-7.6%,i
CCOC(=O)N1CCC(c2cc(=O)n3[nH]c(-c4ccccc4)cc3n2)CC1,1.02,4.3%,i
COC(=O)c1ccc2c(=O)n(NC(=O)C(c3ccccc3)c3ccccc3)c(=S)[nH]c2c1,·,5.4%,i
Cc1cc(C)nc(SCC(=O)Nc2ccc(N3CCOCC3)c(Cl)c2)n1,0.91,-6.8%,i
O=C(O)C1CCCCC1C(=O)NCCc1cccc(Cl)c1 (stereo unspecified),-0.2,2.8%,i
Cc1cc(C)n(C(=O)CNC(=O)C(c2ccccc2)c2ccccc2)n1,·,-2.2%,i
CCOC(=O)C1CCCN(C(=O)c2ccc3c(c2)OCO3)C1 (stereo unspecified),-0.4,3.4%,i
COC(=O)CSc1nc2ccccc2nc1SCC(=O)OC,-0.95,3.6%,i
Cc1cc(-c2csc(N)n2)c(C)n1CCC(C)C,·,1.7%,39.9µM*
COC(=O)c1cc(Br)c(=O)n(-c2ccccc2OC)c1,-0.37,-4.1%,i
CCN1CCN(C(=O)C2c3cc(OC)c(OC)cc3C(=O)N3CCc4ccccc4C23)CC1 (stereo unspecified),-3.25*,-10.0%,i
Nn1c(SCC(=O)N2CCOCC2)nnc1-c1ccccc1Cl,·,-1.2%,i
Cc1ccc2ncnc(NCCCN3CCOCC3)c2c1,-0.44,2.6%,i
Cc1cccc2cc(CN(Cc3ccco3)S(=O)(=O)c3ccc4c(c3)OCCO4)c(=O)[nH]c12,-1.3,-10.7%,i
Cc1cc(C)n(-c2ccc(C(=O)Nc3nc4ccccc4s3)cc2)n1,1.25,3.8%,i
COC(=O)c1ccc(Cn2nc(C(F)(F)F)cc2C)cc1,·,0.8%,i
Cc1nn(-c2cc(N3CCOCC3)ccc2[N+](=O)[O-])c(=O)c2ccccc12,·,-3.7%,i
CCOC(=O)c1cnn2c(C(F)(F)F)cc(-c3ccccc3)nc12,0.88,2.9%,i
COc1ccc(-c2cc(C(F)F)nc(-n3nc(C)cc3C)n2)cc1,-0.83,2.9%,i
O=C(NCc1cccc(CNC(=O)c2ccco2)c1)c1ccco1,1.74,4.8%,i
CCCCOc1cccc(C(=O)N(Cc2ccco2)C2CCS(=O)(=O)C2)c1 (stereo unspecified),-0.69,0.4%,i
O=C(COC(=O)c1ccc(S(=O)(=O)N2CCc3ccccc3C2)cc1)NC(=O)NCc1ccco1,·,-3.5%,i
CCCN1CCN(CCCNC(=O)c2cc3c(=O)n(C)c4ccccc4c3n2C)CC1,0.18,2.9%,i
CCC1(C)Cc2ccccc2-c2nc3n(c(=O)c21)CCCCC3 (stereo unspecified),-0.01,2.1%,i
C=CCn1c(SCC(=O)Nc2nccs2)nnc1-c1cc2cccc(OC)c2o1,-0.91,6.1%,i
COc1ccc(CC(C)N2CCN(c3ccccc3)CC2)cc1OC (stereo unspecified),·,3.9%,i
O=C1OC(c2ccccc2)=C/C1=C\N1CCOCC1,-0.84,-5.5%,i
O=C(Nc1nc(-c2ccc(Cl)cc2)cs1)c1cccnc1,·,-6.1%,i
CC(=O)C1=C(O)C(=O)N(CCN2CCOCC2)C1c1ccccc1 (stereo unspecified),-1.12,-0.7%,i
COc1ccc(C(C)=O)cc1CN1C(=O)C(C)N(c2ccc(C)cc2)C1=O (stereo unspecified),-0.58,0.1%,i
c1coc(Cn2c(SCc3nc4ccccc4[nH]3)nnc2-c2cccs2)c1,0.26,0.3%,i
c1ccc(OCCCn2nnc(-c3cccnc3)n2)cc1,-0.57,1.7%,i
N#Cc1ccsc1NC(=O)c1cnccn1,-0.49,2.3%,i
COC(=O)c1ccc(C)c(NC(=O)c2nn(C)c(=O)c3ccccc23)c1,-1.81,6.1%,i
O=C(Cc1cc(=O)[nH]c(=O)[nH]1)N1CCN(C(=O)c2ccco2)CC1,-0.23,3.8%,i
CCOc1cc(S(=O)(=O)N2CCCCC2)ccc1Cl,1.23,2.8%,i
Cc1ccc(S(=O)(=O)C(F)(F)F)cc1NC(=O)c1cccnc1,1.13,2.2%,i
CCS(=O)(=O)n1nc(-c2ccco2)nc1SC,0.52,-0.3%,i
O=C(NCC1CCCO1)C1c2ccccc2C(=O)N1C1CCCCCCC1 (stereo unspecified),1.28,4.3%,i
COc1ccc(Oc2c(C)oc3c(CN(C)C)c(O)ccc3c2=O)cc1,0.32,1.6%,i
CC(Oc1ccc(Cl)cc1)c1ccnn1S(C)(=O)=O (stereo unspecified),·,5.0%,i
CCc1ccc2c(c1)C(NC(C)=O)C(=O)N2CC (stereo unspecified),-2.86,3.0%,i
Clc1ccc(-c2nnc3sc(-c4ccco4)nn23)c(Cl)c1,0.35,2.8%,i

# Compound profiles (already shown). Screens in order: WNV NS2B-NS3 inh | Hsc70 | MT1-MMP reporter
# Profile of O=C(NCC1CCCO1)C1c2ccccc2C(=O)N1C1CCCCCCC1 (stereo unspecified) : 1.28 | 4.3% | i
# Profile of C=CCn1c(SCC(=O)Nc2nccs2)nnc1-c1cc2cccc(OC)c2o1 : -0.91 | 6.1% | i
# Profile of CCOC(=O)c1cnn2c(C(F)(F)F)cc(-c3ccccc3)nc12 : 0.88 | 2.9% | i

# The list goes on.
SMILES,WNV NS2B-NS3 inh,Hsc70,MT1-MMP reporter
O=C1Nc2ccc(S(=O)(=O)NCc3ccco3)c3cccc1c23,-0.86,-2.7%,i
O=C(N1CCOCC1)C12CC3CC(C1)CC(c1ccccc1)(C3)C2,·,0.8%,i
CC(=O)c1cccc(N(CC(=O)N2CCOCC2)S(C)(=O)=O)c1,1.7,0.5%,i
C=CCC(c1ccccc1F)N(CCN1CCOCC1)C(=O)Nc1cccc(Cl)c1 (stereo unspecified),·,-3.9%,i
Cc1cc(NC(=O)CSc2nc(CCC3CCCC3)nc3ccccc23)no1,-0.91,-4.5%,i
COc1cccc(N2CCN(C(=O)CN(C)S(=O)(=O)c3ccc4c(c3)CCC(=O)N4)CC2)c1,0.76,8.2%,i
CC(=O)Nc1ccc(S(=O)(=O)N2CCC(c3nc4ccccc4[nH]3)CC2)cc1,0.11,-6.0%,i
COC(=O)[C@H](Cc1ccccc1)NC(=O)NCC1CCCO1 (stereo partly specified),0.00244,5.3%,i
CCC1Oc2ccccc2N(CC(=O)NCCC2=CCCCC2)C1=O (stereo unspecified),-1.13,-0.9%,i
O=C(CN1CCOCC1)NC1CC2CCC1C2 (stereo unspecified),0.26,3.1%,i
CN1CCc2c(sc3c2C(=O)NC(c2ccccn2)N3)C1 (stereo unspecified),1.47,11.0%,i
O=C(C1=C(O)C(=O)N(c2ncccn2)C1c1cccs1)c1ccco1 (stereo unspecified),1.69,28.2%,i
COc1ccc(-n2c(COc3cccc4ccccc34)nnc2SCC#N)cc1,·,2.7%,i
COC(F)(C(=O)Nc1ccc2c(c1)C(=O)NC2=O)C(F)(F)F (stereo unspecified),-0.67,3.9%,i
CC(C)CCNC(=O)CN(C(=O)CCC(=O)Nc1ccccn1)c1ccc2c(c1)OCCO2,·,0.7%,i

# 2 entries picked at random from the list so far:
SMILES,WNV NS2B-NS3 inh,Hsc70,MT1-MMP reporter
COc1cccc(N2CCN(C(=O)CN(C)S(=O)(=O)c3ccc4c(c3)CCC(=O)N4)CC2)c1,0.76,8.2%,i
COC(=O)[C@H](Cc1ccccc1)NC(=O)NCC1CCCO1 (stereo partly specified),0.00244,5.3%,i

# Continuation:
SMILES,WNV NS2B-NS3 inh,Hsc70,MT1-MMP reporter
COc1ccccc1Nc1nc(C)cc(=O)[nH]1,1.1,-3.8%,i
CCC(=O)Nc1ccc(-c2nnc(SCC(=O)Nc3nccs3)n2C)cc1,2.66,-2.0%,i
CCN(CC)CCn1c(NCc2ccccn2)nc2ccccc21,·,1.6%,i
COc1cc(NC(=O)Nc2ccccc2)c(OC)cc1NC(=O)CN1CCCCC1,-1.46,-2.8%,i
O=C1NCC(CN(c2ccccc2)c2ccccc2)O1 (stereo unspecified),-0.66,-1.7%,i
CC(=O)N1CCCc2cc(S(=O)(=O)N3CCN(c4ccccn4)CC3)ccc21,1.41,-0.2%,i
Cc1sc(CO)c(Sc2ccccc2)c1C(=O)O,0.26,-10.2%,i
CCN=C1SC(C(=O)Nc2cccc(C(=O)O)c2)CC(=O)N1CC (stereo unspecified),-1.08,-3.1%,i
COC(=O)c1cn(CCOc2ccccc2OC)c2ccccc12,·,-3.5%,i
O=C(Nc1ccc2c(c1)CCC2)c1cccc(S(=O)(=O)N2CCN(c3ccc(F)cc3)CC2)c1,·,1.6%,i
COc1ccc(N/N=C(/Oc2ccc([N+](=O)[O-])cc2)C(C)=O)cc1,·,1.1%,i
CCCNC(=O)Cc1ncn[nH]1,-0.78,2.2%,i
COc1ccc(N2C(=O)CC(n3cnc4ccccc43)C2=O)cc1 (stereo unspecified),·,4.6%,i
COc1ccc(-n2nc3c(c2NC(=O)Cc2cccc(C)c2)CS(=O)C3)cc1 (stereo unspecified),-0.33,-2.7%,i
CC(=O)C1=C(NC(=O)c2ccccc2F)C[C@@H]2[C@H]1C2(C)C,-0.39,4.8%,i

# Quoted from the entries so far for reference:
SMILES,WNV NS2B-NS3 inh,Hsc70,MT1-MMP reporter
COc1ccc(Oc2c(C)oc3c(CN(C)C)c(O)ccc3c2=O)cc1,0.32,1.6%,i
CC(Oc1ccc(Cl)cc1)c1ccnn1S(C)(=O)=O (stereo unspecified),·,5.0%,i
CCc1ccc2c(c1)C(NC(C)=O)C(=O)N2CC (stereo unspecified),-2.86,3.0%,i

# Following part:
SMILES,WNV NS2B-NS3 inh,Hsc70,MT1-MMP reporter
Cn1c(=O)c2c(nc(Oc3ccccn3)n2C)n(C)c1=O,0.21,-6.0%,i
CCC(C)NC(=O)CCS(=O)(=O)c1ccc2c(c1)n(C)c(=O)c(=O)n2C (stereo unspecified),-0.53,2.0%,i
O=C1CCCCCN1CP(=O)(O)CCc1ccccc1,1.18,-5.6%,i
O=C(CSc1ncccn1)Nc1ccc(S(=O)(=O)N2CCCCC2)cc1,·,0.7%,i
O=C1OCc2ccc(NC(=O)C3CCCCC3)cc21,-0.69,6.4%,i
O=C(NC(Cc1ccccc1)C(=O)O)c1ccccc1 (stereo unspecified),-1.06,5.9%,i
Cc1c(/C(O)=C2/C(=O)C(=O)N(CCN3CCOCC3)C2c2ccco2)cnn1-c1ccccc1 (stereo unspecified),-0.73,-6.8%,i
COc1cccc(C2c3c(oc4ccc(Cl)cc4c3=O)C(=O)N2c2cc(C)on2)c1OC (stereo unspecified),-0.34,-9.9%,i
COc1ccccc1CNS(=O)(=O)c1cccc(S(=O)(=O)N2CCOCC2)c1,-0.02,-7.0%,i
COc1ccccc1CN(Cc1cc2cc(C)cc(C)c2[nH]c1=O)Cc1nnnn1CC1CCCO1 (stereo unspecified),0.11,0.8%,i
CCCCCOc1ccc(NC(=O)C(=O)NCCC2=CCCCC2)cc1,·,-1.1%,i
CCCCN(C)C(=O)c1cn(C)c2ccc(S(=O)(=O)N(C)C)cc2c1=O,0.21,3.5%,i
S=c1[nH]c2ncccc2o1,-0.89,1.2%,i
Clc1ccc(-c2cn3c(n2)CCC3)cc1,-0.01,-5.3%,i
CSc1nnc2c(n1)[nH]c1c(C)cccc12,-0.28,4.7%,i
